Mtb growth – Mycobacterium tuberculosis H37Rv growth inhibition, putative kinase inhibitor library, confirmatory dose response (AID 2842); M. tuberculosis H37Rv growth inhibition; higher % means a stronger effect; some inactives read as strong as hits; one-dose inhibition, % at 10 µg/mL; IC90 in µg/mL for titrated hits; hit rate 5.2% among 24,000;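 active = confirmed in a dose series; about a fifth of its hits are not listed in these tables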;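 also: bacteria incubated one week before Alamar blue readout; 0% = bacteria only wells and 100% = bacteria with high antibiotic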
Starred values were filed as active, the others as inactive. Some of the compounds tested. The share of hits here may be higher or lower than overall.

SMILES | Mtb growth
Nc1ncnc(NCC2CCCO2)c1[N+](=O)[O-] (configuration not stated) | -5.1%
Cc1ccc(C)c(S(=O)(=O)c2cnc(SCC(=O)Nc3ccc(F)cc3)[nH]c2=O)c1 | -4.5%
CCCc1cc(=O)[nH]c2nnc(SCC(=O)Nc3ccc4c(c3)OCO4)n12 | -8.7%
CN(C)S(=O)(=O)c1ccc(C(=O)Nc2nc(-c3ccc(Br)cc3)cs2)cc1 | 5.8%
O=C(O)CCNC(=O)CC1S/C(=N/N=C/c2c(-c3ccccc3)[nH]c3ccccc23)NC1=O (configuration not stated) | -6.8%
N#CC1=C(SCC(=O)c2ccccc2)NC2=C(C(=O)CCC2)C1c1ccco1 (configuration not stated) | 80.4%
O=C(Cn1cnc2c(cnn2-c2ccccc2)c1=O)Nc1ccc(Cl)cc1 | -5.2%
CC(=O)c1cccc(NC(=O)c2cnc3n(c2=O)CCS3)c1 | 0.1%
O=C(CSc1nc2c(c(=O)[nH]1)CN(Cc1ccc(Cl)cc1)CC2)Nc1ccc(F)cc1 | -2.2%
O=C(/C=C/c1cccc([N+](=O)[O-])c1)Nc1nnc(-c2ccc3c(c2)CCCC3)o1 | 81.3%
O=C(Nc1nc(-c2ccc(F)cc2)cs1)c1cc(=O)c2ccccc2o1 | -7.2%
Cc1cc2c(=O)n(Cc3ccco3)c(SCC(=O)NCc3ccco3)nc2s1 | -4.9%
CC(=O)N1CCc2c(sc(NC(=O)c3ccc(-c4ccccc4)cc3)c2C(N)=O)C1 | 20.4µg/mL*
COc1cccc(-n2c(=O)[nH]c3c(C(N)=O)nc(-c4ccccc4F)nc32)c1 | -1.2%
COc1ccc(S(=O)(=O)NCC2COC3(CCCCC3)O2)cc1 (configuration not stated) | 10.0%

Among those listed so far, these contain fluorine.
SMILES | Mtb growth
Cc1ccc(C)c(S(=O)(=O)c2cnc(SCC(=O)Nc3ccc(F)cc3)[nH]c2=O)c1 | -4.5%
O=C(CSc1nc2c(c(=O)[nH]1)CN(Cc1ccc(Cl)cc1)CC2)Nc1ccc(F)cc1 | -2.2%
O=C(Nc1nc(-c2ccc(F)cc2)cs1)c1cc(=O)c2ccccc2o1 | -7.2%
COc1cccc(-n2c(=O)[nH]c3c(C(N)=O)nc(-c4ccccc4F)nc32)c1 | -1.2%

New compounds follow
SMILES | Mtb growth
O=C(CCC1CCCC1)N1CCN(c2ncnc3c2nnn3-c2ccc(F)cc2)CC1 | 6.7%
O=C(Nc1ccc(S(=O)(=O)Nc2ccccn2)cc1)c1cc2ccccc2o1 | -2.4%
Cc1ccc(C)c2[nH]c(=O)c(CCNC(=O)C3CCCC3)cc12 | -4.3%
Cc1ccccc1C(=O)Nc1nc(-c2ccc3c(c2)OCCO3)cs1 | 23.4%
O=C(CSc1ccc2nnc(-c3ccc(Cl)cc3)n2n1)Nc1ccccc1F | -3.9%
COc1ccc2cc(CCNC(=O)c3ccc(Br)cc3)c(=O)[nH]c2c1 | -3.7%
CCS(=O)(=O)c1cccc(C(=O)Nc2nc3c(Cl)ccc(Cl)c3s2)c1 | -1.0%
N#Cc1ccc(C(=O)Nc2sccc2C(N)=O)cc1 | 5.2%
Cc1ccc(C)c(NC(=O)Cn2cnc3c(cnn3-c3cccc(Cl)c3)c2=O)c1 | 16.9%
CC1C(=O)N2CCCc3cc(NS(C)(=O)=O)cc1c32 (configuration not stated) | 2.7%
COc1ccc(-c2nnc(NC(=O)C(C)Sc3ccc(C)cc3)s2)c(OC)c1 (configuration not stated) | 8.9%
O=C(O)CC1S/C(=N\N=C/c2ccccc2)N(c2ccc(O)cc2)C1=O (configuration not stated) | -1.2%
CCOc1ccc(NC(=O)c2oc3ccccc3c2NC(=O)c2ccccc2[N+](=O)[O-])cc1 | 36.5%
CCc1ccc(N/C=C(\C#N)c2nc(-c3cccc(OC)c3)cs2)cc1 | -6.0%
O=C(Nc1nc2ccc(Cl)cc2s1)c1ccc(S(=O)(=O)N2CCc3ccccc32)cc1 | 9.4%
CCOC(=O)c1nn(-c2ccc(F)cc2)c(=O)c2c(NC(=O)c3ccc(Br)o3)scc12 | -6.8%
O=C(Nc1ccc(Cl)cc1)c1oc2ccccc2c1NC(=O)C1CCCC1 | 57.3%
N#Cc1c(NC(=O)c2ccc(-c3nc4ccccc4s3)s2)sc2c1CCC2 | -0.6%
COc1cccc2sc(Nc3nc4ccc5nc(C)sc5c4s3)nc12 | 9.8%
CCOC(=O)c1nn(-c2ccccc2)c(=O)c2c(NC(=O)C3CC3)scc12 | 2.3%
O=C(CSc1cnc2ccccc2n1)NC1CCS(=O)(=O)C1 (configuration not stated) | -2.0%
CC(=O)NCCNc1nc2c(-c3cccc(C(F)(F)F)c3)nnn2c2ccccc12 | -2.6%
Cc1ccc(Cc2nnc(SCC(=O)Nc3ccc(Cl)cc3)[nH]c2=O)cc1 | -3.0%
CCN1C(=O)c2cccc3c(NC(=O)c4cc5ccccc5cc4OC)ccc1c23 | -5.2%
COc1ccccc1NC(=O)c1oc2ccccc2c1NC(=O)c1cccc([N+](=O)[O-])c1 | 4.9%
Cc1ccc(CSc2nccn(-c3cccc(F)c3)c2=O)cc1 | 10.4%
Cn1c(NC(=O)/C=C\c2ccc3c(c2)OCO3)cc(=O)n(C)c1=O | -10.5%
CS(=O)(=O)c1ccc(-c2nnc(NC(=O)c3cccc(F)c3)o2)cc1 | 55.5%
Cc1ccc2cc(CCNC(=O)/C=C\c3ccccc3)c(=O)[nH]c2c1 | -4.5%
CC(=O)c1ccc(NC(=O)CSc2nnc(C)c(=O)n2N)cc1 | -8.6%

Part of the list above, in markdown:
| structure | Mtb growth |
| --- | --- |
| Cn1c(NC(=O)/C=C\c2ccc3c(c2)OCO3)cc(=O)n(C)c1=O | -10.5% |
| COc1ccccc1NC(=O)c1oc2ccccc2c1NC(=O)c1cccc([N+](=O)[O-])c1 | 4.9% |

The main list resumes, repeating the 7 entries before the break.
SMILES | Mtb growth
CCN1C(=O)c2cccc3c(NC(=O)c4cc5ccccc5cc4OC)ccc1c23 | -5.2%
COc1ccccc1NC(=O)c1oc2ccccc2c1NC(=O)c1cccc([N+](=O)[O-])c1 | 4.9%
Cc1ccc(CSc2nccn(-c3cccc(F)c3)c2=O)cc1 | 10.4%
Cn1c(NC(=O)/C=C\c2ccc3c(c2)OCO3)cc(=O)n(C)c1=O | -10.5%
CS(=O)(=O)c1ccc(-c2nnc(NC(=O)c3cccc(F)c3)o2)cc1 | 55.5%
Cc1ccc2cc(CCNC(=O)/C=C\c3ccccc3)c(=O)[nH]c2c1 | -4.5%
CC(=O)c1ccc(NC(=O)CSc2nnc(C)c(=O)n2N)cc1 | -8.6%
CCOc1ccccc1C(=O)Nc1cc2c3c(c1)CCC(=O)N3CCC2 | 69.3%
C=C(C)Cn1c(N2CCN(Cc3c(Cl)cccc3Cl)CC2)nc2c1c(=O)[nH]c(=O)n2C | 5.5%
N#Cc1c(NC(=O)CCSc2ccccc2)sc2c1CCC2 | 0.7%
Cc1cc(C)cc(C(=O)Nc2cc3c4c(c2)CC(=O)N4CCC3)c1 | 36.7%
O=C(O)c1ccccc1C(=O)n1c(COc2ccc(Cl)cc2)nc2ccccc21 | 15.1%
Cc1ccc2sc(NC(=O)c3ccc(N4C(=O)CCC4=O)cc3)nc2c1C | 0.1%
N=c1sc(/C=C2\C=Nc3ccccc32)c(O)n1-c1nccs1 | <0.2µg/mL*
NC(=O)c1oc2ccccc2c1NC(=O)c1ccc(Cl)cc1Cl | -1.2%
O=C(Oc1ccc(Nc2ncnc3ccccc23)cc1)c1cccs1 | 61.7%
O=C(O)CN1C(=O)/C(=C2/OC(=O)c3ccccc32)SC1=S | -7.9%
O=C(CSc1nc2c(c(=O)n1-c1ccc(F)cc1)SCC2)Nc1ccc(F)cc1F | 10.7%
O=C(CSc1ccc(-c2ccc(-n3ccnc3)cc2)nn1)Nc1ccc(F)cc1 | -15.8%
CCN(c1ncnc(N)c1[N+](=O)[O-])C1CCCCC1 | 5.4%
O=C(Nc1cccc(F)c1)c1cnc2n(c1=O)CCS2 | 0.6%
COc1ccc(C(=O)Nc2nnc(-c3ccncc3)o2)cc1OC | 11.2%
COC(=O)CSC1=C(C#N)C(c2ccc(O)cc2)CC(=O)N1 (configuration not stated) | -0.1%
CCOC(=O)c1ccc(NC(=O)CSc2ncnc3ccccc23)cc1 | 15.2%
COc1ccc(NCc2cc3cc(OC)c(OC)cc3n(CC(=O)Nc3cccc(F)c3)c2=O)cc1 | 31.2%
COc1ccc(-c2nnc(Nc3ccc4c(c3)OCO4)[nH]c2=O)cc1 | -3.8%
Cn1c(=O)c2c(SCC(=O)NCc3ccco3)ccnc2n(C)c1=O | -10.8%
COc1ccc(OC)c2[nH]c(=O)c(CCNC(=O)c3ccc4ccccc4c3)cc12 | 65.0%
O=C1NC(=O)c2c(NC(=O)c3c(F)cccc3F)cccc21 | 5.4%
O=C(CCCCCN1C(=O)/C(=C/c2cccs2)SC1=S)Nc1ccccc1 | 3.1%

Two compounds drawn at random from those above:
SMILES | Mtb growth
CCOC(=O)c1ccc(NC(=O)CSc2ncnc3ccccc23)cc1 | 15.2%
COc1ccc(NCc2cc3cc(OC)c(OC)cc3n(CC(=O)Nc3cccc(F)c3)c2=O)cc1 | 31.2%

Screening data: PubChem BioAssay, Southern Research Institute
